# High-throughput results: PubChem BioAssay, National Center for Advancing Translational Sciences (NCATS)
# NS1 function inh – inhibitors of influenza NS1 protein function; S. cerevisiae slowed by influenza A NS1, growth recovery by OD600; Potency, µM (series often up to 46.1 µM), without a hit: top-dose activity, positive = more growth; 0.4% of 270,000 active; AID 2326; active means well fitted rising curve with a large enough effect; inconclusive means small, poorly fitted or top-dose-only effect; inactive means no such curve, though single readings can be large or run the other way; further: nearly all actives have a fitted effect of over 50% in size
#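 S. cerevisiae expressing influenza A NS1, grown in glucose, washed, then diluted 1:100 into pH 6.0 -URA galactose medium with 23 nl compound. Growth recovery read as OD600; NS1-free strain serves as control.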
# MARV entry inh – blocks Marburg virus binding to or entry into cells; 1.8% of 300,000 active; AID 540276; Potency, µM (highest dose often 37.8 µM), without a hit: top-dose activity change, negative = inhibition, most hits filed as inhibitors; Marburg virus pseudotyped entry inhibition, cell reporter; control for the full effect not named in the record; about a third of the inactives were read at about 46 µM; active = well fitted inhibition curve with a large enough effect; inconclusive = small, poorly fitted or top-dose-only effect, or effect the other way; inactive = flat fitted curve, though single readings scatter; tested in HEK293 cells; about a fifth of its hits are not listed in these tables; further: on the % scale 0 is the no-effect control and ±100 the full control effect; luciferase read-out
# RE007 growth inh – less growth of the S. pombe RE007 Vpr strain; S. pombe RE007 Vpr strain, BacTiter-Glo ATP luminescence, 24 h; control for the full effect not named in the record; Potency, µM (doses to about 92.2 µM), for inactives: at the top dose activity change, negative = less growth; 0.21% of 360,000 active; active = well fitted falling curve with a large enough effect; inconclusive = small, poorly fitted or top-dose-only effect; inactive = no such curve, though single readings can be large or run the other way;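 further: on the % scale 0 is the no-effect control and ±100 the full control effect; nearly all actives have a fitted effect of over 50% in size; the assay follows cell death caused by Vpr and the record does not say whether a fall means rescue or toxicity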
#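 Fission yeast strain RE007, carrying one chromosomally integrated HIV-1 vpr copy, was seeded at OD 0.01 in PMG+AL medium with 23 nL pinned compound. After 24 h at 30 °C and 99% humidity, viability was read by BacTiter-Glo luminescence.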
# Lassa entry inh – inhibitors of Lassa virus binding or cell entry | AID 540256 | 1.2% of 300,000 active | Lassa virus pseudotype entry inhibition, cell reporter; control for the full effect not named in the record | Potency, µM (top dose mostly 37.9 µM), inactives show at the highest dose activity change, negative = inhibition, usual class: inhibitors; active means well fitted inhibition curve with a large enough effect; inconclusive means small, poorly fitted or top-dose-only effect, or effect the other way; inactive means flat fitted curve, though single readings scatter; tested in HEK293 cells; further: on the % scale 0 is the no-effect control and ±100 the full control effect; nearly all actives have a fitted effect of over 50% in size; luciferase read-out
# 2A StopGo – FMDV 2A StopGo reporter, luciferase signal; human cells with a luciferase reporter of 2A StopGo recoding; control for the full effect not named in the record; Potency, µM (titrated, usually from 57.9 µM), inactives show top-dose signal change, negative = less light; 1.2% of 410,000 active; AID 1159524; active = well fitted falling curve with a large enough effect; inconclusive = small, poorly fitted or top-dose-only effect; inactive = no such curve, though single readings can be large or run the other way; tested in HEK293T cells; further: on the % scale 0 is the no-effect control and ±100 the full control effect; nearly all actives have a fitted effect of over 45% in size; luciferase light after 4 h
# SARS PLpro yeast – blocks SARS-CoV papain-like protease in a yeast assay | S. cerevisiae expressing SARS-CoV PLpro, growth rescue; control for the full effect not named in the record | Potency, µM (top dose mostly 32.9 µM), for inactives: top-dose activity, positive = growth rescue | 0.19% of 330,000 active | AID 485353; active means well fitted rising curve with a large enough effect; inconclusive means small, poorly fitted or top-dose-only effect; inactive means no such curve, though single readings can be large or run the other way; further: 0% is about no effect; nearly all actives have a fitted effect of over 55% in size; growth read by luminescence after 48 h
# Cruzain inh noDet – cruzain (T. cruzi) inhibition without detergent | purified cruzain, Z-FR-AMC fluorescence, no detergent | Potency, µM, without a hit: max response, negative = inhibition, most hits filed as inhibitors | 2.3% of 200,000 active;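 further: plate controls were enzyme without inhibitor for no effect and buffer without enzyme for full effect; nearly all actives have a fitted effect of over 40% in size; top concentration of the series not given in the record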
# Target sequence (P25779 123-467 limits assumed): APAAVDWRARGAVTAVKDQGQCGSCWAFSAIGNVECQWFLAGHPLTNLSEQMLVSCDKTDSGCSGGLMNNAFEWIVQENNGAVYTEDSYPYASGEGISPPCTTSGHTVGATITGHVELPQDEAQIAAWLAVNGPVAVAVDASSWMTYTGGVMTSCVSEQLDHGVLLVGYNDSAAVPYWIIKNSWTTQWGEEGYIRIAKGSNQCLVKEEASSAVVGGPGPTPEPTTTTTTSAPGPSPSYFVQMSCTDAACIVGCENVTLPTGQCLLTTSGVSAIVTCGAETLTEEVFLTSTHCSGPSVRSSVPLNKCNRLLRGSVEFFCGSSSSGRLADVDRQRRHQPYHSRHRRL
#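 Purified cruzain at 1.5 nM, pre-incubated 15 min with compound at room temperature in 100 mM sodium acetate pH 5.5, 5 mM DTT, 0.00005% Triton X-100. Reaction started with 2 uM Z-FR-AMC; AMC fluorescence increase over 60 s gives rate.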
# Cruzain Triton – blocks cruzain activity in presence of Triton detergent; Potency, µM, without a hit: max response, negative = inhibition, actives largely listed as inhibitors; purified cruzain, Z-FR-AMC fluorescence, 0.01% Triton; P25779; 0.43% of 200,000 active;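 further: plate controls were neutral wells for no effect and buffer without enzyme for full effect; nearly all actives have a fitted effect of over 40% in size; top concentration of the series not given in the record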
#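 Z-FR-AMC hydrolysis (2 uM substrate) by cruzain (1.5 nM) monitored kinetically at ex 360/em 450 nm after 15 min room-temperature compound exposure; 0.01% Triton X-100, pH 5.5, 5 mM DTT.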
# An asterisk follows results filed as active; u = inconclusive; x = not tested or not shown; [ ] = dose if it differs, or a comment. Unless noted, the call rests on the fitted dose curve; in most records, active means well fitted curve in the direction sought with a large enough effect; inconclusive means small, poorly fitted or top-dose-only effect, or another doubt; inactive means no such curve, though single readings can be large; an effect the other way counts as inactive or inconclusive. Potency means the concentration at half of the fitted maximal effect.
# Sample of the layout, 4 compounds:
canonical_smiles	NS1 function inh	MARV entry inh	RE007 growth inh	Lassa entry inh	2A StopGo	SARS PLpro yeast	Cruzain inh noDet	Cruzain Triton
CC(Sc1nc2ccccc2s1)C(=O)N1CCOCC1 (stereo unspecified)	-14%	3%[46.1 µM]	3%	-4%	46%[activator]	-1%	-13%	-1.4%
COc1ccc(S(=O)(=O)Nc2ccc(NC(C)=O)cc2)cc1Br	x	-3%[46.1 µM]	16%	6%[46.1 µM]	0%	-1%	x	x
Oc1ccc(/C=C/c2ccnc3ccccc23)cc1	-3%	u	5%	u	42%[activator]	-2%	u	-17%
O=C(Cc1ccccc1)Nc1ccc(NC(=O)c2cccs2)cc1Cl	-2%	x	9%	x	-2%	1%	x	x

# All compounds of this part, previewed entries included:
canonical_smiles	NS1 function inh	MARV entry inh	RE007 growth inh	Lassa entry inh	2A StopGo	SARS PLpro yeast	Cruzain inh noDet	Cruzain Triton
CC(Sc1nc2ccccc2s1)C(=O)N1CCOCC1 (stereo unspecified)	-14%	3%[46.1 µM]	3%	-4%	46%[activator]	-1%	-13%	-1.4%
COc1ccc(S(=O)(=O)Nc2ccc(NC(C)=O)cc2)cc1Br	x	-3%[46.1 µM]	16%	6%[46.1 µM]	0%	-1%	x	x
Oc1ccc(/C=C/c2ccnc3ccccc23)cc1	-3%	u	5%	u	42%[activator]	-2%	u	-17%
O=C(Cc1ccccc1)Nc1ccc(NC(=O)c2cccs2)cc1Cl	-2%	x	9%	x	-2%	1%	x	x
O=C(N1CCOCC1)N1CCC(n2nnc3cc(F)ccc32)CC1	2%	u	-13%	-19%	0%	0%	-3%	1.2%
Cn1c(=O)c2c(nc(OCC3COC(C)(C)O3)n2Cc2ccccc2F)n(C)c1=O (stereo unspecified)	-1%	11%	-23%	u	0%	-6%	12%	2.1%
Cc1cccc(NC(=O)Cn2cc(S(=O)(=O)c3ccc(F)cc3)c(=O)c3cc4c(cc32)OCO4)c1	x	-24%[46.1 µM]	x	12%[46.1 µM]	5%	x	u	-3.2%
Cc1cc(C)c2c(=O)[nH]c(SCc3ccccc3C)nc2n1	1%	11%[46.1 µM]	1%	6%	-5%	0%	x	x
Cc1c(C(=O)Nc2nccs2)oc2ccc(Br)cc12	x	u	-16%	u	24%	-1%	x	x
O=S(=O)(c1ccccc1Oc1ccc(Cl)cc1Cl)N1CCCCC1	6%	-7%[46.1 µM]	6%	u	-1%	0%	x	x
COc1ccc(Nc2c(-c3ccsc3)nc3nc(C)cc(C)n23)cc1	x	-5%[46.1 µM]	x	-17%[46.1 µM]	-1%	x	0%	-6.9%
CCn1cc(C(=O)N2CCN(c3cc(C)ccc3C)CC2)c(=O)c2cc(S(=O)(=O)N3CCOCC3)ccc21	x	0%[46.1 µM]	x	-3%[46.1 µM]	0%	x	u	-4.7%
CCNC(=O)NC(=O)CSc1nnc(-c2c[nH]c3ccccc23)o1	-52%	5%[46.1 µM]	13%	-12%	1%	3%	x	x
COc1ccc(OC)c(/C=N\NC(=O)c2ccc(-c3ccccc3)cc2)c1	-9%	-11%	5%	u	-20%	1%	x	x
CC1=C(C(=O)Nc2ccccc2C)C2(CCCCC2)C(C(N)=O)C(=S)N1 (stereo unspecified)	18%	0%	7%	2%	-24%	-3%	-9%	-7.0%

# Complete entries, quoted from the list. Screens in order: NS1 function inh | MARV entry inh | RE007 growth inh | Lassa entry inh | 2A StopGo | SARS PLpro yeast | Cruzain inh noDet | Cruzain Triton
# `COc1ccc(OC)c(/C=N\NC(=O)c2ccc(-c3ccccc3)cc2)c1` is entered as -9% | -11% | 5% | u | -20% | 1% | x | x
# `Cc1cccc(NC(=O)Cn2cc(S(=O)(=O)c3ccc(F)cc3)c(=O)c3cc4c(cc32)OCO4)c1` is entered as x | -24%[46.1 µM] | x | 12%[46.1 µM] | 5% | x | u | -3.2%

# Next records
canonical_smiles	NS1 function inh	MARV entry inh	RE007 growth inh	Lassa entry inh	2A StopGo	SARS PLpro yeast	Cruzain inh noDet	Cruzain Triton
CCc1ccc(S(=O)(=O)Nc2cccc(-c3ccc4nncn4n3)c2)s1	x	u	7%	-28%[46.1 µM]	66%[activator]	3%	x	x
CCOC(=O)c1sc(/N=C/c2c(O)n(-c3ccccc3)c(=O)[nH]c2=O)c(C#N)c1C	-21%	-1%[46.1 µM]	13%	-21%	1%	-10%	-9%	1.2%
C/C(NCC(C)(C)CN(C)C)=C(/C#N)C(=O)NCc1ccccc1	-3%	-6%	17%	-15%	-12%	1%	-5%	2.2%
COc1ccccc1CNC(=O)[C@@H](NC(=O)C1CCN(C(=O)[C@@H]2CCCN2C(=O)OC(C)(C)C)CC1)C(C)C	-6%	x	-1%	x	-5%	-5%	x	x
CCC(C(=O)Nc1sc(C(N)=O)c(C)c1C(=O)OC)c1ccccc1 (stereo unspecified)	x	13µM*	3%	x	-22%	-5%	x	x
N=C(c1ccc([N+](=O)[O-])cc1)N1CCCCCC1	4%	0%[46.1 µM]	-5%	6%[46.1 µM]	40%[activator]	1%	x	x
CCOC(=O)N1CCc2c(sc3c2c(=O)n(Cc2ccccc2)c(=O)n3Cc2ccccc2F)C1	15%	-4%	-2%	11%	-26%	-5%	-24%	-2.1%
CCCCCCCN1C(Nc2ccccc2)=NC[C@@H]1Cc1ccccc1	-16%	x	2%	x	u	3%	x	x
Cc1c(C(=O)N2CCCCC2)c(S(=O)(=O)NCc2ccc(F)cc2)c(C)n1C	5%	-1%[46.1 µM]	4%	-6%[46.1 µM]	0%	0%	x	x
Cc1cc(C)cc(NC(=O)CCNC(=O)N2C[C@H]3C[C@@H](C2)c2cccc(=O)n2C3)c1	0%	x	7%	x	-13%	-1%	x	x
Nc1[nH][nH]c(=O)c1N=Nc1ccc2c(c1)OCO2	4%	u	-20%	22%[46.1 µM]	-9%	-1%	x	x
COc1ccc(C(=O)NC2CCN(Cc3c(F)cccc3Cl)CC2)cc1OC	4%	x	-13%	x	-28%	5%	x	x
O=C(CNC(=O)c1ccccc1)N/N=C/c1cc(Br)ccc1O	12%	u	-9%	u	-6%	14%	-23%	0.0%
Cn1c(=O)c2sccc2n2c(CCC(=O)NCc3ccc(F)cc3)nnc12	x	2%[46.1 µM]	x	13%[46.1 µM]	-25%	x	2%	0.3%
O=C(CC1CCCC1)Nc1ccc2c(c1)CCC2	-7%	1%	14%	-8%	45%[activator]	2%	-3%	-0.7%
CC1CN(S(=O)(=O)c2cccs2)CC(C)O1 (stereo unspecified)	u	13%	17%	-1%	x	3%	1%	0.2%
COc1ccc(NC(=O)Cc2csc(NC(=O)Nc3ccccc3OC)n2)c(OC)c1	x	u	14%	-2%	u	8%	x	x
CCOc1ccc(CCNC(=O)COC(=O)c2nc(Cl)ccc2Cl)cc1OCC	x	-8%	-8%	9%	-8%	0%	x	x
O=C(CCN1CCN(C/C=C/c2ccccc2)CC1)Nc1ccc(Cl)cc1	-12%	u	-14%	-22%	-13%	-4%	14%	2.2%
Cc1nnc(SCC(=O)Nc2ccc3c(c2)OCCO3)n1CC1CCCO1 (stereo unspecified)	9%	-8%[46.1 µM]	17%	u	9%	-3%	2%	3.5%
COc1ccc(CC(=O)N2CCN(C(=O)c3ccco3)CC2)cc1	4%	14%	3%	u	x	8%	6%	-2.2%
O=C(Cc1ccc(-n2c(=O)[nH]c3ccsc3c2=O)cc1)NCc1cccnc1	6%	6%	4%	13%	-7%	12%	8%	-1.6%
O=c1c2ccccc2[nH]c(=S)n1CCCN1CCN(c2ccccc2F)CC1	3%	x	19%	x	-13%	8%	x	x
COc1ccc(CCn2c(-c3ccco3)nc3ccccc3c2=O)cc1OC	-14%	u	18%	u	32µM*	2%	12%	-0.8%
COc1ccc(NC(C)=O)cc1S(=O)(=O)Nc1ccc(S(=O)(=O)N2CCCCC2)cc1	x	-8%[46.1 µM]	3%	-6%[46.1 µM]	79%[activator]	-4%	x	x
Cc1noc(-c2ccc(N3CCCCC3)c([N+](=O)[O-])c2)n1	x	u	x	-3%[46.1 µM]	49%[activator]	x	13%	-5.9%
COc1ccc(CC(=O)Nc2nc3c(s2)CC(C(C)(C)C)CC3)cc1 (stereo unspecified)	x	4%[46.1 µM]	x	-4%[46.1 µM]	31%[activator]	x	u	-0.9%
CC(C)CNC(=O)COC(=O)CNC(=O)c1cc(Cl)cc([N+](=O)[O-])c1	-12%	7%	-5%	-6%	-12%	17%	7.9µM*	10µM*
CCC(C)N(C(=O)COC(=O)c1ccccc1SCC(=O)N1CCCC1)C1CCS(=O)(=O)C1 (stereo unspecified)	3%	12%	-6%	28%	3%	2%	x	x
CC(CN1CCOCC1)c1ccccc1 (stereo unspecified)	-2%	4%	5%	1%	x	0%	-8%	3.9%
CC(=O)N1CCN(C(=O)c2ccc(Cl)c(S(=O)(=O)N3CCCCCC3)c2)CC1	x	-22%	18%	-7%	-8%	1%	x	x
Cc1cc(C)n2nc(SCC(=O)N3CCCC3)nc2n1	x	2%	-2%	22%	-3%	1%	x	x
COc1cc(NC(=O)CN2C(=O)NC(c3ccccc3)(c3ccccc3)C2=O)cc(OC)c1	-6%	-12%[46.1 µM]	0%	u	-14%	2%	x	x
Cn1c(=O)[nH]c(=O)c2[nH]c(NCCCN3CCOCC3)nc21	-8%	13%	-1%	5%	u	9%	-2%	6.7%
COc1ccc(S(=O)(=O)NCCc2csc3nc(-c4ccc(OC)c(OC)c4)nn23)cc1C	x	x	x	-9%[46.1 µM]	38%[activator]	x	22%	-2.8%
